Screening data as filed in PubChem BioAssay.
FGF22 binding – binders of human FGF22 protein, primary screen, FGF22 synaptogenesis inhibitor project, biophysical, thermal shift, single point. Fibroblast growth factor 22 (Homo sapiens), Q9HCT0. recombinant FGF22 thermal shift, SYPRO orange fluorescence; percent of sucrose octasulfate shift, DMSO zero. calls only at 9.99 µM. hit rate 1.5% among 340,000;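 active means melting point raised past a set limit in the mean and every replicate; three in four hits are not shown here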
Target sequence (Q9HCT0 whole entry, looked up): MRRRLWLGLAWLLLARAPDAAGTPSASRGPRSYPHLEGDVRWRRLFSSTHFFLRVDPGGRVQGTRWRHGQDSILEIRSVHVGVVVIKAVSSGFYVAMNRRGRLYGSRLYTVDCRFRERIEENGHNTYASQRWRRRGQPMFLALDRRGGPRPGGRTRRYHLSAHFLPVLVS
AF4-AF9 inh – inhibitors of AF4 peptide binding to AF9, primary screen, biochemical, AlphaScreen, biotin-AF4 peptide, FLAG-AF9, single point | Protein AF-9 (Homo sapiens), P42568 | inhibition, % at 10 µM | hit rate 0.47% among 350,000 | AID 651704, 2012;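 active means every replicate reaching a set inhibition limit, whatever the replicate mean, cut at about 25% in these data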;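 further: 0% = plate neutral control median and 100% = total signal loss; the record names both 10 and 1 µM as test concentration; the first replicate is given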
Target sequence (P42568 whole entry, looked up): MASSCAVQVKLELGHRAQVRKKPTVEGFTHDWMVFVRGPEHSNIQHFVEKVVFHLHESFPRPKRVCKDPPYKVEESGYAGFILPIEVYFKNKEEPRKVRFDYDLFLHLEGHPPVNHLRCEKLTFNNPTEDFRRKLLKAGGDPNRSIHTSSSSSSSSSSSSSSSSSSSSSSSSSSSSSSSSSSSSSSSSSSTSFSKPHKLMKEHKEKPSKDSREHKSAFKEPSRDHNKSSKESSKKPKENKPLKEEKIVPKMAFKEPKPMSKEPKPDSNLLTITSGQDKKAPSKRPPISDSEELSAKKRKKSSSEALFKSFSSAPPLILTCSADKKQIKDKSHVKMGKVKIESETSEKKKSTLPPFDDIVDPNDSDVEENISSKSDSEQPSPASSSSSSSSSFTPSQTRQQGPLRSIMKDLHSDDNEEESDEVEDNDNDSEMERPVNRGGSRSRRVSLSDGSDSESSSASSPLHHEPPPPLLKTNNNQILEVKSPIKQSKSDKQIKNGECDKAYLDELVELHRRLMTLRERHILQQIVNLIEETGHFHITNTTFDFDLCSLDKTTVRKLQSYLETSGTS
Starred values were filed as active, the others as inactive; i = inactive; & = joins results of further samples. An excerpt (hit frequency here may not be typical).

Below each SMILES – FGF22 binding, AF4-AF9 inh
1: C[C@@H]1CN([C@H](C)CO)C(=O)c2cc(NS(=O)(=O)c3ccccc3)ccc2O[C@@H](C)CCCCO[C@@H]1CN(C)Cc1ccccc1
    i, 3.1&2.1
2: COc1ccccc1-c1cnc2c(c1)C(=O)N([C@@H](C)CO)C[C@@H](C)[C@H](CN(C)Cc1cccnc1)O2
    i, -2.6
3: C[C@@H]1CN([C@@H](C)CO)C(=O)c2cc(NC(=O)C3CCCCC3)ccc2O[C@H]1CN(C)Cc1ccc(C(F)(F)F)cc1
    i, 2.0
4: C[C@@H]1CCCCO[C@@H](CN(C)Cc2ccncc2)[C@@H](C)CN([C@@H](C)CO)C(=O)c2cc(NS(=O)(=O)c3cn(C)cn3)ccc2O1
    i, -0.9
5: C[C@H](CO)N1C[C@H](C)[C@H](CN(C)S(=O)(=O)c2ccccc2)Oc2ccc(NC(=O)C3CC3)cc2C1=O
    i, -2.2
6: COCC(=O)NC[C@@H]1[C@H](c2ccc(C3=CCCC3)cc2)[C@@H](CO)N1C(C)=O
    i, 12.3
7: COc1cccc(NC(=O)N2C[C@H](O)COC[C@H]3O[C@H](CC(=O)NC4Cc5ccccc5C4)CC[C@@H]32)c1
    i, -0.8
8: COc1ccc(CN(C)C[C@@H]2OCCCC[C@H](C)Oc3ccc(NC(=O)Nc4ccc(OC)cc4)cc3C(=O)N([C@@H](C)CO)C[C@@H]2C)cc1
    i, 0.4
9: C[C@@H]1CN([C@@H](C)CO)C(=O)c2cc(NC(=O)Nc3ccc(C(F)(F)F)cc3)ccc2O[C@@H]1CN(C)S(=O)(=O)c1ccc(Cl)cc1
    i, -0.7
10: COc1ccc2c3c([nH]c2c1)[C@@H](CO)N(Cc1ccncc1)CC31CCN(Cc2ccc(-c3ccccn3)cc2)CC1
    i, 8.3
11: Cc1noc(C)c1NC(=O)Nc1cccc2c1O[C@@H](CN(C)C(=O)NC1CCCCC1)[C@@H](C)CN([C@H](C)CO)C2=O
    i, -2.4
12: C[C@@H]1CN([C@H](C)CO)C(=O)c2cc(C#CC3(O)CCCC3)cnc2O[C@@H]1CN(C)Cc1ccccn1
    i, -1.9
13: C[C@@H]1CN([C@@H](C)CO)C(=O)Cc2cc(NS(=O)(=O)c3cccs3)ccc2O[C@H]1CN(C)Cc1ccc(-c2ccccc2)cc1
    i, 3.4
14: C[C@@H]1CN([C@H](C)CO)C(=O)c2cccc(NC(=O)Nc3ccccc3)c2O[C@H]1CN(C)S(C)(=O)=O
    i, -2.2
15: CO[C@@H]1CN(C)C(=O)c2ccc(NC(=O)Nc3ccccc3F)cc2OC[C@@H](C)N(CC2CC2)C[C@H]1C
    i, 6.8

Some of the entries above, set out differently.
no. | SMILES | FGF22 binding | AF4-AF9 inh
9 | C[C@@H]1CN([C@@H](C)CO)C(=O)c2cc(NC(=O)Nc3ccc(C(F)(F)F)cc3)ccc2O[C@@H]1CN(C)S(=O)(=O)c1ccc(Cl)cc1 | i | -0.7
10 | COc1ccc2c3c([nH]c2c1)[C@@H](CO)N(Cc1ccncc1)CC31CCN(Cc2ccc(-c3ccccn3)cc2)CC1 | i | 8.3
11 | Cc1noc(C)c1NC(=O)Nc1cccc2c1O[C@@H](CN(C)C(=O)NC1CCCCC1)[C@@H](C)CN([C@H](C)CO)C2=O | i | -2.4
12 | C[C@@H]1CN([C@H](C)CO)C(=O)c2cc(C#CC3(O)CCCC3)cnc2O[C@@H]1CN(C)Cc1ccccn1 | i | -1.9
13 | C[C@@H]1CN([C@@H](C)CO)C(=O)Cc2cc(NS(=O)(=O)c3cccs3)ccc2O[C@H]1CN(C)Cc1ccc(-c2ccccc2)cc1 | i | 3.4
14 | C[C@@H]1CN([C@H](C)CO)C(=O)c2cccc(NC(=O)Nc3ccccc3)c2O[C@H]1CN(C)S(C)(=O)=O | i | -2.2

Additional compounds follow:
Below each SMILES – FGF22 binding, AF4-AF9 inh
16: C[C@@H]1CN([C@H](C)CO)C(=O)CCCn2cc(nn2)CO[C@@H]1CN(C)CC1CCCC1
    i, -6.6
17: C/C=C/c1ccc2c(c1)O[C@H](CN(C)C(=O)COC)[C@H](C)CN([C@H](C)CO)S2(=O)=O
    i, -6.1
18: C[C@H](CO)N1C[C@H](C)[C@H](CN(C)Cc2ccccc2)Oc2ncc(-c3ccc(F)cc3)cc2C1=O
    i, -13.7
19: Cc1ccc(S(=O)(=O)N(C)C[C@@H]2OCCCC[C@@H](C)Oc3ccc(NC(=O)CCCN(C)C)cc3C(=O)N([C@H](C)CO)C[C@@H]2C)cc1
    i, -2.6
20: C[C@H](CO)N1C[C@H](C)[C@@H](CN(C)S(=O)(=O)c2cn(C)cn2)Oc2c(NC(=O)c3nc4ccccc4s3)cccc2C1=O
    i, -3.5
21: CC(C)NC(=O)Nc1ccc2c(c1)C(=O)N([C@H](C)CO)C[C@@H](C)[C@H](CN(C)C(=O)c1ccccc1)OCCCC[C@@H](C)O2
    i, -5.3
22: CCCC(=O)N1C[C@@H]2[C@H](c3ccccc31)[C@@H](CO)N2C(=O)Nc1ccc(F)cc1
    i, -1.1
23: C[C@@H]1CCCCO[C@@H](CN(C)C(=O)Nc2ccc(F)cc2)[C@H](C)CN([C@@H](C)CO)C(=O)c2cc(NC(=O)Cc3ccccc3)ccc2O1
    i, -1.1
24: CN(C)C(=O)c1cc2c(c(-c3cccc(-c4ccc(F)cc4)c3)n1)[C@H](CCO)N([S@@](=O)C(C)(C)C)C2
    i, 0.1
25: COc1ccccc1CNC(=O)C[C@@H]1C[C@H]2c3cc(NC(=O)Nc4ccccc4F)ccc3O[C@H]2[C@@H](CO)O1
    i, 1.7
26: C[C@H]1CCCCO[C@H](CN(C)Cc2ccc(Cl)c(Cl)c2)[C@@H](C)CN([C@@H](C)CO)C(=O)c2cc(NC(=O)c3ccccc3)ccc2O1
    i, -0.7
27: COc1ccc2c3c(n(C)c2c1)[C@@H](CO)N(C(=O)c1ccccc1)CC31CCN(CC2CC2)CC1
    i, -1.0
28: CO[C@H]1CN(C)C(=O)c2ccc(NS(=O)(=O)CC(F)(F)F)cc2OC[C@@H](C)N(Cc2nccs2)C[C@H]1C
    i, -1.4
29: C[C@H](CO)N1C[C@H](C)[C@@H](CN(C)C(=O)c2ccccc2F)Oc2ncc(C#Cc3cccc(F)c3)cc2C1=O
    i, 0.5
30: OCC1COC(c2ccccc2)=N1 (stereo not given)
    i, -1.5
31: CC(C)C#Cc1ccc([C@@H]2[C@@H](CO)N3CCCCN(C(=O)c4ccc5c(c4)OCO5)C[C@H]23)cc1
    i, 11.8
32: C[C@@H]1CN([C@H](C)CO)S(=O)(=O)c2ccc(-c3ccccc3)cc2O[C@H]1CN(C)C(=O)CC1CC1
    i, 1.4
33: C[C@@H]1CN([C@@H](C)CO)C(=O)Cc2cc(NS(C)(=O)=O)ccc2O[C@H]1CN(C)Cc1ccc2c(c1)OCO2
    i, 0.2
34: C[C@H]1CN([C@@H](C)CO)C(=O)Cc2cc(NC(=O)CCCCCC(=O)Nc3ccccc3N)ccc2O[C@@H]1CN(C)CC1CCCCC1
    i, -1.3
35: Cc1noc(C)c1S(=O)(=O)N(C)C[C@H]1OCCCC[C@@H](C)Oc2ccc(NC(=O)Nc3ccccc3)cc2C(=O)N([C@@H](C)CO)C[C@H]1C
    i, 5.0
36: C[C@@H]1CN([C@@H](C)CO)C(=O)c2cc(N(C)C)ccc2O[C@@H](C)CCCCO[C@@H]1CN(C)C(=O)Cc1ccccc1
    i, -1.1
37: Cc1ccc(S(=O)(=O)N[C@@H]2CC[C@H](CCNC(=O)CN3CCOCC3)O[C@H]2CO)cc1
    i, 0.9
38: O=C(c1cnccn1)N1CC[C@@H]2[C@H](CO)Nc3ccc(-c4ccccc4F)cc3[C@@H]21
    i, -8.5
39: COCC#Cc1ccc2c(c1)O[C@H](CN(C)S(=O)(=O)c1ccc(C)cc1)[C@H](C)CN([C@@H](C)CO)S2(=O)=O
    i, 2.2
40: Cc1ccccc1-c1cnc2c(c1)C(=O)N([C@H](C)CO)C[C@@H](C)[C@@H](CN(C)Cc1cccnc1)O2
    i, -2.8
41: CCC(=O)N(C)C[C@@H]1Oc2ncc(-c3ccccc3F)cc2C(=O)N([C@@H](C)CO)C[C@H]1C
    i, 8.5
42: C[C@@H]1CN([C@H](C)CO)C(=O)c2cccc(NC(=O)c3ccncc3)c2O[C@H]1CN(C)C(=O)NC1CCCCC1
    i, -1.7
43: COc1cccc(-c2cnc3c(c2)C(=O)N([C@@H](C)CO)C[C@@H](C)[C@@H](CN(C)C(C)=O)O3)c1
    i, -3.7
44: Cc1noc(C)c1NC(=O)Nc1cccc2c1O[C@H](CN(C)Cc1ccc3c(c1)OCO3)[C@H](C)CN([C@H](C)CO)C2=O
    i, -4.2
45: CCCC#Cc1cnc2c(c1)C(=O)N([C@@H](C)CO)C[C@@H](C)[C@H](CN(C)S(=O)(=O)c1cn(C)cn1)O2
    i, -1.5
46: COc1ccc(NC(=O)N(C)C[C@@H]2Oc3ccc(NC(=O)Nc4c(C)noc4C)cc3CC(=O)N([C@H](C)CO)C[C@@H]2C)cc1
    i, -2.8
47: C[C@H](CO)N1C[C@H](C)[C@H](CN(C)Cc2cccnc2)Oc2ncc(-c3ccccc3)cc2C1=O
    i, -2.0
48: COc1ccc(S(=O)(=O)N(C)C[C@@H]2Oc3ccc(NC(=O)c4ccncc4)cc3C(=O)N([C@H](C)CO)C[C@H]2C)cc1
    i, -1.9
49: CCN1[C@@H]2c3ccc(/C=C/c4ccccc4)c(=O)n3C[C@@H]2[C@@H](CO)[C@@H]1C(=O)N(C)C
    i, -0.2
50: COc1cccc(-c2ccc3c(c2)O[C@@H](CN(C)Cc2ccncc2)[C@H](C)CN([C@H](C)CO)S3(=O)=O)c1
    i, 6.9
51: COc1cccc(NC(=O)N(C)C[C@@H]2Oc3ncc(C4=CCCCC4)cc3C(=O)N([C@H](C)CO)C[C@H]2C)c1
    i, 0.6
52: C[C@@H]1CCCCO[C@@H](CN(C)C(=O)Nc2ccccc2)[C@@H](C)CN([C@H](C)CO)C(=O)c2cc(NC(=O)Nc3ccc(C(F)(F)F)cc3)ccc2O1
    i, 2.4
53: CO[C@@H]1CN(C)C(=O)c2ccc(NS(=O)(=O)c3cn(C)cn3)cc2OC[C@@H](C)N(CC2CC2)C[C@H]1C
    i, -2.3
54: Cc1noc(C)c1S(=O)(=O)Nc1ccc2c(c1)C(=O)N([C@H](C)CO)C[C@H](C)[C@@H](CN(C)Cc1ccc(C(=O)O)cc1)OCCCC[C@H](C)O2
    i, -7.6
55: O=C(C[C@@H]1CC[C@@H]2NC[C@@H](O)COC[C@H]2O1)NCCN1CCCCC1
    i, -0.7
56: O=C(C[C@H]1CC[C@H](NC(=O)NC2CCCCC2)[C@H](CO)O1)NCc1ccc(Cl)cc1
    i, -1.5
57: COc1cccc(NC(=O)N(C)C[C@H]2OCc3ccccc3-c3ccccc3C(=O)N([C@H](C)CO)C[C@@H]2C)c1
    i, -1.5
58: O=C(NCC1CC1)[C@H]1[C@H](CO)[C@H]2Cn3c(ccc(-c4ccccc4F)c3=O)[C@@H]1N2Cc1cccnc1
    i, 1.6
59: Cc1ccc(S(=O)(=O)Nc2ccc3c(c2)CC(=O)N([C@H](C)CO)C[C@H](C)[C@H](CN(C)C(=O)Nc2c(C)noc2C)O3)cc1
    i, -18.8
60: C[C@H](CO)N1C[C@H](C)[C@@H](CN(C)Cc2ccc3c(c2)OCO3)Oc2ccc(NC(=O)C3CC3)cc2C1=O
    i, 0.1
61: C[C@@H]1CN([C@@H](C)CO)C(=O)Cc2cc(NC(=O)Cn3cnnn3)ccc2O[C@@H]1CN(C)Cc1ccc(C(F)(F)F)cc1
    i, 1.8
62: COc1ccc(NC(=O)Nc2ccc3c(c2)C(=O)N([C@@H](C)CO)C[C@@H](C)[C@@H](CN(C)CC2CC2)OCCCC[C@@H](C)O3)cc1
    i, 25.6*
63: CCCNC(=O)N1[C@@H]2c3cccc(=O)n3C[C@H]1[C@H](CO)[C@H]2C(=O)NCC(F)(F)F
    i, -1.8
64: CNC[C@H]1Oc2c(NS(=O)(=O)c3cn(C)cn3)cccc2C(=O)N([C@H](C)CO)C[C@@H]1C
    i, -1.7
65: C[C@H](CO)N1C[C@H](C)[C@H](CN(C)Cc2ccc(-c3ccccc3)cc2)Oc2ccc(NC(=O)CCN3CCOCC3)cc2CC1=O
    i, 9.9
66: C[C@H](CO)N1C[C@H](C)[C@H](CN(C)Cc2ccccc2)Oc2ccc(NS(C)(=O)=O)cc2C1=O
    i, -1.5
67: CS(=O)(=O)Nc1ccc2c(c1)[C@H]1C[C@@H](CC(=O)NC3CCCC3)O[C@@H](CO)[C@H]1O2
    i, -0.7
68: C[C@H](CO)N1C[C@H](C)[C@H](CN(C)S(=O)(=O)c2ccc(Cl)cc2)OCCCC[C@H](C)Oc2ccc(NC(=O)Cc3ccccc3)cc2C1=O
    i, 1.0
69: C[C@H](CO)N1C[C@H](C)[C@@H](CN(C)Cc2ccc(C(F)(F)F)cc2)Oc2ccc(NS(=O)(=O)c3ccccc3)cc2C1=O
    i, 2.2
70: CN1C[C@@H](O)COC[C@H]2O[C@H](CC(=O)NC3CCCC3)CC[C@@H]21
    i, -0.9
71: C/C=C/c1cnc2c(c1)C(=O)N([C@@H](C)CO)C[C@H](C)[C@H](CN(C)C(=O)Nc1c(C)noc1C)O2
    i, -2.4
72: CC(C)C#Cc1ccc([C@@H]2[C@H](C#N)N(C(=O)C3CCC3)[C@H]2CO)cc1
    i, 1.1
73: Cc1noc(C)c1S(=O)(=O)Nc1cccc2c1O[C@H](CN(C)S(=O)(=O)c1cccs1)[C@H](C)CN([C@H](C)CO)C2=O
    i, -0.6
74: C[C@@H]1CN([C@@H](C)CO)C(=O)c2cccc(NC(=O)NC3CCCCC3)c2O[C@H]1CN(C)C(=O)NC1CCCCC1
    i, -1.6
75: Cn1cnc(S(=O)(=O)N[C@H]2CC[C@@H](CC(=O)NCC3CCCCC3)O[C@H]2CO)c1
    i, -0.4
76: CCCNC(=O)N1C[C@H](O)COC[C@H]2O[C@@H](CC(=O)N3CCCCC3)CC[C@@H]21
    i, -2.2
